# Sfp PPTase inh: inhibitors of Bacillus subtilis Sfp phosphopantetheinyl transferase. Q9F4F7. Biochemical Sfp PPTase activity, qHTS. Potency, µM, without a hit: max response, negative = inhibition, most hits filed as inhibitors. actives 3.5% (n = 310,000); active means well fitted inhibition curve with a large enough effect; inconclusive means small, poorly fitted or top-dose-only effect, or another doubt; inactive means no such curve, though single readings can be large or run the other way;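 further: the enzyme is Sfp with the accession as filed and its product quenches rhodamine fluorescence; potency means the concentration at half of the fitted maximal effect; 0% = enzyme reaction without inhibitor and -100% = no enzyme wells; top concentration of the series not given in the record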
#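 Sfp 15 nM + cpd, 15 min RT; start w/ rhodamine-CoA 5 uM, BHQ-2-YbbR 12.5 uM (final); 50 mM Hepes pH 7.6, 10 mM MgCl2, 0.01% NP-40, 0.01% BSA; read 525/598 nm at 0 and 30 min.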
# Six1-Eya2 inh: inhibitors of human Six1/Eya2 interaction. Q15475+O00167. AlphaScreen GST-Six1/His-Eya2 binding, biochemical; active compounds read low; control for the full effect not named in the record. activity change, % (concentration not given with the values). actives 0.56% (n = 360,000). AID 651725; in the data active = activity change below about -65%; inconclusive = about -30% to -65%; inactive = above about -30%; further: on the % scale 0 is the no-effect control and ±100 the full control effect
#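 Homogeneous AlphaScreen proximity assay pairing GST-Six1 with His-tagged Eya2 (added as 5X mix: 250 nM and 500 nM) in 50 mM Tris pH 8.0, 300 mM NaCl, 1 mM TCEP. Glutathione donor and nickel acceptor beads; 1 h, 37 °C, dark.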
# CtBP-E1A inh: blocks the CtBP interaction with E1A | AID 651724 | AlphaScreen GST-E1A/His-CtBP binding, 1536-well; active compounds read low; control for the full effect not named in the record | activity change, % (test concentration not listed) | actives 0.49% (n = 340,000); in the data active means activity change below about -65%; inconclusive means about -30% to -65%; inactive means above about -30%; further: on the % scale 0 is the no-effect control and ±100 the full control effect
#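 Steps: dispense buffer (Tris pH 8.0, NaCl 300 mM, TCEP 1 mM, BSA, Tween 20); add 5X protein mix (GST-E1A, His-CtBP, 125 nM each); pin 23 nL compound; 2 h at 37 °C, dark; add 5X beads (50 ug/mL); 1 h; read.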
# TRPV1 PAM: enhances activation of the human vanilloid receptor TRPV1; TRPV1-expressing cells, Fluo-8 calcium influx, capsaicin EC20 potentiation; host cell line not named in the record; control for the full effect not named in the record; Q8NER1; potentiation, % at 8.33 µM; actives 0.02% (n = 320,000); AID 540277; active means potentiation above 80%; inconclusive means 30% to 80%; inactive means below 30%; further: 0% is about no effect
# Target sequence (Q8NER1 whole entry, looked up): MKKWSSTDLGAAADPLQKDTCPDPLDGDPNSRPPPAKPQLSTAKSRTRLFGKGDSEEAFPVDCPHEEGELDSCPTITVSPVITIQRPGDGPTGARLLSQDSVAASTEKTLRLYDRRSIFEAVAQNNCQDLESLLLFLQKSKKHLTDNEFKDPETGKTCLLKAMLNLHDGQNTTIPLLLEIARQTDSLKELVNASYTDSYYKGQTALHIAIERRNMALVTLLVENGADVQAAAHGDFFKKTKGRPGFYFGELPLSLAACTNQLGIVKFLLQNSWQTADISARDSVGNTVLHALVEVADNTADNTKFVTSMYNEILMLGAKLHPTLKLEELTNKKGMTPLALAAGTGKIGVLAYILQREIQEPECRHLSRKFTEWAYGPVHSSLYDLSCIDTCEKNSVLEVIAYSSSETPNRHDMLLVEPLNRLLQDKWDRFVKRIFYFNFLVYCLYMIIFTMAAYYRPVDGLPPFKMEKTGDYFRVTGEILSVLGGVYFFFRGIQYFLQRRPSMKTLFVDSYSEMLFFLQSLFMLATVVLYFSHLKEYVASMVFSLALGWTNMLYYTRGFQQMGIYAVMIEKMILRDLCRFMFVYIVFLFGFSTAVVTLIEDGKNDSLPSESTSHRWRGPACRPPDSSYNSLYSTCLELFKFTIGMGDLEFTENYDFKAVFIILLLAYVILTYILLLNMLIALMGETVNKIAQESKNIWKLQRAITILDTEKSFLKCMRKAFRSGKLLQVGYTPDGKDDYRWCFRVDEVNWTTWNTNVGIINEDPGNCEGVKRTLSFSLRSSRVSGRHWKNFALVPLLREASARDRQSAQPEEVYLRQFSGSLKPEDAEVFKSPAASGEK
#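 Cells expressing TRPV1 were dye-loaded with Fluo-8 and read kinetically: 10 s baseline, 3 min after compound (agonist portion), then 2 min after EC20 capsaicin (allosteric enhancer portion). Calcium-bound dye fluorescence at 480/520 nm.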
# D2 ag: agonists of human D2 dopamine receptor (beta-arrestin); P14416; DiscoveRx PathHunter D2 beta-arrestin, luminescence, 90 min; 100% = 57 uM dopamine signal; activation, % (test concentration not listed); actives 0.084% (n = 360,000); AID 624465; in the data active = activation above about 40%; inconclusive = about 15% to 40%; inactive = below about 15%; further: compound concentration not given in the record; the text of the record calls up to 30% inactive
#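 Agonist mode: compounds alone added to overnight-plated D2 PathHunter cells for 90 min at 37 C, with 57 uM final dopamine (EC100) defining full response. Beta-arrestin recruitment detected by chemiluminescent reagent, read after 1 h at ambient temperature.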
# PINK1 modulator: modulators of PINK1 expression; PINK1 immunofluorescence, high-content cytometry, 24 h; actives 0.2% (n = 410,000); Potency, µM (highest dose often 76.6 µM), for the others: at the highest dose activation (PINK1 increase), hits mostly activators; AID 624263; active = well fitted activation curve with a large enough effect; inconclusive = small, poorly fitted or top-dose-only effect; inactive = flat fitted curve, though single readings scatter; cell line not stated here;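 further: potency means the concentration at half of the fitted maximal effect; % of control where 0% means no effect; nearly all actives have a fitted effect of over 65% in size; a mitochondrial uncoupler was the plate control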
#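 Compound titrations (5 concentrations, 24 h) on a stable cell line; DMSO and CCCP controls. Endpoint: fixed-cell PINK1 immunofluorescence with mitochondrial, cell and nuclear markers, scanned by microplate cytometer.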
# D2 potentiator: positive allosteric modulators of human D2 dopamine receptor. P14416. DiscoveRx D2 beta-arrestin cells, luminescence, 90 min; 100% = 57 uM dopamine signal. potentiation, % (no concentration beside the values). actives 0.23% (n = 360,000). AID 624464; active = potentiation of 50% or more; inconclusive = 30% to 50%; inactive = 30% or less;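 further: compound concentration not given in the record; tested on top of an EC20 dose of dopamine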
#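 PathHunter beta-arrestin assay in DiscoveRx D2 cells. Compounds were added with an EC20 of dopamine (50 nM final) for 90 min at 37 deg C. Luminescence was read 1 h after detection reagent, with 57 uM dopamine as the EC100 control.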
# Numbers without * were called inactive; ? = inconclusive; . = no result given; & = joins results of further samples; [ ] = another dose, or the depositor's remark.
molecule	Sfp PPTase inh	Six1-Eya2 inh	CtBP-E1A inh	TRPV1 PAM	D2 ag	PINK1 modulator	D2 potentiator
CC(SC1=NCCS1)C(=O)Nc1nnc(-c2ccc(Br)cc2)s1 (stereo not given)	26%	-2	-19	1	-4.4	-0.4%	-9
COc1ccc(-c2nc3c(Cl)cc(C(F)(F)F)cn3c2Cc2cccc(F)c2)cc1OC	.	10	4	.	-5.6	1.1%	-9
Nc1ncnc(N2CCc3ccccc32)c1[N+](=O)[O-]	20%	1	-2	1	3.0	0.0%	-1
N#Cc1c(Sc2ncc(C(F)(F)F)cc2Cl)nsc1C/C=N\OCc1ccccc1Br	-13%	-11	-5	10	-6.0	0.8%	?
COc1ccccc1N1CCN(C(=O)c2cc3c(s2)CCCCC3)CC1	-9%	-13	15	-3	2.6	1.2%	4
CCOc1ccc(C(=O)/C=C/c2ccc(OC)c(OC)c2)cc1	-22%	-3	1	15	1.4	-0.2%	-1
CS(=O)(=O)c1ccc2nc(NC(=O)c3ccc(NS(=O)(=O)c4cccc([N+](=O)[O-])c4)cc3)sc2c1	-19%	-8	.	-9	-3.3	-1.3%	-12
CC1CCN(S(=O)(=O)c2ccc(C(=O)N3CCCC3C(=O)O)cc2)CC1 (stereo not given)	.	18	-4	26	-2.9	-0.7%	-3
CC(C)CC(COCc1ccc(Cl)cc1)N1CCN(C(=O)c2ccc(Cl)cc2Cl)CCC1=O (stereo not given)	?	8	-5	-5	-6.9	27%	-4
COc1ccc(Cl)cc1S(=O)(=O)Nc1ccc2c(c1)n(C)c(=O)n2C	14%	10	-3	7	-5.9	3.4%&1.1%	1
O=C(COc1ccccc1)c1ccccc1	.	12	20	.	-1.6	2.3%	-5
COc1ccc(CCNS(=O)(=O)c2ccc(Br)cc2)cc1OC	10%	4	-3	-1	2.6	-0.1%	-3
CNc1ccc(C=C2C=Cc3ccccc32)cc1	.	?	-2	.	-3.0	11%	-15
O=C(NCc1csc(-c2cccs2)n1)C1CC1	-1%	1	2	-2	-4.8	-0.9%	-6
O=C(CN1CCN(CC(=O)Nc2ccc(Cl)cc2)CC1)Nc1ccc(F)cc1	12%	4	-9	-7	0.9	-0.6%	7
Cc1ccccc1NCc1ccc(O)c2ncccc12	3%	-91*	-95*	?	-1.4	11µM*	-2
Cc1ccccc1NS(=O)(=O)c1ccc2c(c1)n(C)c(=O)n2C	11%	72	2	-2	2.1	1.6%	6
Cc1ccc(N(CC(=O)N/N=C/c2ccc(OCC(N)=O)cc2)S(C)(=O)=O)cc1Cl	5%	7	.	-7	2.7	0.8%	-3
CC[C@H](C)[C@H]1CNC(=O)C(=O)N1CC1CCN(CCc2ccc(Cl)c(Cl)c2)CC1	.	5	0	.	-0.7	0.8%	-19
Cn1nc(C(C)(C)C)cc1C(=O)N1CCCCC1c1cc(C(=O)Nc2ccccc2)no1 (stereo not given)	.	5	-10	.	6.6	1.3%	1
O=C(Nc1ccc(F)cc1)OCCOc1ccc([N+](=O)[O-])cc1	1%	15	.	-17	-2.0	0.2%	24
Cc1c(C#N)c(N=CN(C)C)c(C(=O)c2ccc(Br)cc2)n1-c1ccccc1	5%	-13	10	-18	-2.2	-1.9%[38.3 µM]	-3
O=C(CN1CCN(CC(=O)Nc2ccccc2C(F)(F)F)CC1)Nc1ccccc1F	5%	-4	-2	-38	0.2	0.8%	5
COc1ccc(CC(=O)Nc2ccc(S(=O)(=O)Nc3cc(C)on3)cc2)cc1OC	19%	-4	-8	-2	-2.2	2.2%	-3

# Reprinted at random: 2 entries already listed.
molecule	Sfp PPTase inh	Six1-Eya2 inh	CtBP-E1A inh	TRPV1 PAM	D2 ag	PINK1 modulator	D2 potentiator
COc1ccc(CC(=O)Nc2ccc(S(=O)(=O)Nc3cc(C)on3)cc2)cc1OC	19%	-4	-8	-2	-2.2	2.2%	-3
Cc1c(C#N)c(N=CN(C)C)c(C(=O)c2ccc(Br)cc2)n1-c1ccccc1	5%	-13	10	-18	-2.2	-1.9%[38.3 µM]	-3

# (listing goes on)
molecule	Sfp PPTase inh	Six1-Eya2 inh	CtBP-E1A inh	TRPV1 PAM	D2 ag	PINK1 modulator	D2 potentiator
Cc1cc(OCC(=O)Nc2cccnc2)c2c(C)cc(=O)oc2c1	11%	-7	0	20	-1.2	1.2%	1
CN1CN=C(NS(=O)(=O)c2ccc([N+](=O)[O-])cc2)NC1	19%	7	11	-3	3.7	1.0%	-10
O=C(CSCc1cc(=O)n2nc(C3CC3)sc2n1)Nc1ccccc1Cl	8%	-10	-1	9	-0.1	0.5%	-7
CC1(C)CC(CC(=O)Nc2ccccc2[N+](=O)[O-])C(=O)O1 (stereo not given)	-19%	4	5	3	-4.5	2.4%	-16
CC(C)n1cnc2cc(NCc3ccccn3)ccc21	?	-18	-18	?	0.4	6.8%[38.3 µM]	-6
COCCN(C(=S)Nc1cc(C)cc(C)c1)C(C)c1cccs1 (stereo not given)	5%	0	-4	-1	-4.1	2.0%	-8
CC(=O)NC(NC(=S)Nc1c(C)n(C)n(-c2ccccc2)c1=O)C(Cl)(Cl)Cl (stereo not given)	16%	4	3	7	-2.8	-1.4%	0
CCn1c(COc2ccc(C)cc2)nnc1SCC(=O)Nc1ccc2c(c1)OCCO2	12%	-3	2	11	-1.6	2.7%	-12
COc1cccc(/C=N/n2cnc3c(cnn3-c3ccccc3)c2=O)c1	5%	2	19	7	-0.2	4.3%	-3
CCOC(=O)c1ccc(Nc2nc(N3CCOCC3)nc(N3CCOCC3)n2)cc1	-17%	1	-1	-9	-9.6	0.7%	-6
Cc1ccccc1-c1noc(-c2cccs2)n1	-13%	23	3	11	-1.6	20%	-5
COc1cc(C2C(S(=O)(=O)c3ccccc3)CON2C)ccc1OCc1ccc(F)cc1 (stereo not given)	19%	11	5	-15	-0.5	3.4%	4
O=C(NCc1cccnc1)Nc1cccc(C(F)(F)F)c1	15%	-1	-15	9	-0.8	1.5%	-15
CCCc1cc(CN(C)C(=O)CC2C(=O)NCCN2Cc2ccccc2C)[nH]n1 (stereo not given)	6%	-1	-2	-1	-0.2	-1.5%	15
O=C(CCc1ccc(S(=O)(=O)NC2CCCCC2)cc1)N(Cc1ccccc1)Cc1ccccc1	11%	-9	-3	-3	-1.8	-1.4%	-5
CN(C)CCOc1ccc(C(C)(C)c2ccccc2)cc1	45µM*	5	?	-2	-3.8	-1.5%	-11
c1cncc(-c2nnc3sc(C4CCCCC4)nn23)c1	11%	1	1	23	-1.7	-1.8%	-16
C/C(=N\NC(=O)c1cc(C)nc2ccccc12)c1cccs1	-21%	-15	.	.	-4.9	5.2%	-15
CCN(c1ccccc1)S(=O)(=O)c1ccc(OC)c(NC(=O)CN2C(=O)NC(C)(C)C2=O)c1	.	0	8	17	0.9	1.0%	-6
CCOC(=O)c1cc2sccc2n1CC(=O)Nc1ccc(OC)cc1	22%	0	6	6	-4.8	10%	-5
COc1ccc(NC(=O)N2CCCC2C(=O)NCc2ccccc2Cl)cc1 (stereo not given)	1%	-6	-2	4	-4.2	-0.2%	-6
CC(CCc1ccccc1)NC(=O)Cc1cccs1 (stereo not given)	-4%	3	5	-26	-10	1.4%	-9
COc1ccc2c(c1)C(=O)CC(c1ccc3c(c1)OCCO3)O2 (stereo not given)	-6%	0	5	1	-1.3	3.0%	-7
Cc1ccc(-c2nc(SC(C)C(=O)N3CCOCC3)n[nH]2)cc1 (stereo not given)	1%	-1	0	2	4.1	-0.1%	-4

# Single entries from above:
# C/C(=N\NC(=O)c1cc(C)nc2ccccc12)c1cccs1 – Sfp PPTase inh = -21%
# COc1ccc2c(c1)C(=O)CC(c1ccc3c(c1)OCCO3)O2 (stereo not given) – D2 potentiator = -7
# Cc1ccc(-c2nc(SC(C)C(=O)N3CCOCC3)n[nH]2)cc1 (stereo not given) – D2 ag = 4.1

# Continued:
molecule	Sfp PPTase inh	Six1-Eya2 inh	CtBP-E1A inh	TRPV1 PAM	D2 ag	PINK1 modulator	D2 potentiator
COc1cccc(NC(=O)COC(=O)Cc2ccc(Br)cc2)c1	20%	-1	1	-2	-4.2	-0.5%	-5
CCOC(=O)N1CCN(C(=O)C2CCN(S(=O)(=O)CC)CC2)CC1	12%	2	3	-9	-0.2	.	-11
COc1cc(C(=O)N2CCN(C(=O)c3ccccc3)CC2)cc(OC)c1OC	4%	4	0	-22	-2.7	-3.7%[38.3 µM]	-9
COc1ccc(OC)c(CCNC(=O)C(C)n2nc(C)c3c(C)n(-c4ccccc4)nc3c2=O)c1 (stereo not given)	16%	0	2	3	-5.7	-1.1%	1
COc1cccc(NC(=O)CN(C)C(=O)c2cc(-c3ccccc3)nc3ccc(C)cc23)c1	.	-10	2	.	15	4.0%	0
Cc1ccnc(NC(=O)c2cccc(S(=O)(=O)N3CCN(c4ccccc4)CC3)c2)c1	.	-11	-17	-2	5.8	1.4%	-2
CCC(NC(=O)CNC(=O)CNC(=O)c1ccc(Cl)cc1Cl)c1ccc(C)cc1 (stereo not given)	4%	6	-1	-5	-11	-0.9%	-10
Nc1ccccc1-c1nc2ccccc2c(=O)o1	4%	42	32	-4	0.0	-0.4%	3
COc1ccc(CNCCC(c2ccc(F)cc2)c2ccc(OC)cc2)cc1 (stereo not given)	-8%	6	4	-15	4.0	-3.0%	-29
CCCCn1c(SCC(=O)N2CC(C)CC(C)C2)nc2cc(S(N)(=O)=O)ccc21 (stereo not given)	-8%	3	1	-18	-2.1	9.2%[38.3 µM]	7
C/C(N)=C(/C#N)C(=O)CSc1nc2ccccc2[nH]1	2%	-3	-4	-29	-0.2	10%[38.3 µM]	3
CCOc1ccccc1N(CC(=O)Nc1ccc2c(c1)OCCO2)S(C)(=O)=O	7%	0	1	2	1.0	1.5%	1
CCOc1ccc(OCCSc2nc(C)cc(=O)[nH]2)cc1	23%	-2	-4	-22	-1.5	1.1%	-4
Cc1cc(Br)c2[nH]c3c(c2c1)CCCC3=O	6%	-4	-2	9	-2.5	1.4%	-44
Cc1[nH]c2ccccc2c1/C=C(\C#N)C(=O)NCC1CCCO1 (stereo not given)	-1%	-17	.	-8	-0.2	-2.2%	-10
CSc1nc(Sc2ccccc2)c2ccccc2n1	-10%	54	51	-8	-4.2	1.2%	1
CCOC(=O)C1(Cc2cccc(OC)c2)CCCN(C(=O)CCN2CCCO2)C1 (stereo not given)	15%	-2	0	-7	-3.1	0.6%	6

# Screening data as filed in PubChem.
